E coli growth = blocks Escherichia coli growth; OD600, 23 h; hits give low values; OD600 absorbance (concentration not given with the values); 330,000 compounds, 0.21% hits;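 active = OD600 absorbance below the run mean of sample wells minus 3.6 SD, in any replicate, cut at about 0.56 in these data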;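 note: stock transfer was 300 nL into about 60 µL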
MLL AF4-AF9 inh = blocks AF4 peptide binding to human AF9 | P42568 | AlphaScreen, biotin-AF4 peptide binding to FLAG-AF9 | inhibition, % at 10 µM | 350,000 compounds, 0.47% hits | AID 651704;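 active = every replicate reaching a set inhibition limit, whatever the replicate mean, cut at about 25% in these data; inconclusive = mean inhibition reaches that limit but some replicates miss it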;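 note: 0% = plate neutral control median and 100% = total signal loss; the record names both 10 and 1 µM as test concentration; the first replicate is given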
FGF22 binding = binders of recombinant human FGF22 by thermal shift; Q9HCT0; SYPRO orange fluorescence; percent of sucrose octasulfate shift, DMSO zero; calls only at 9.99 µM; 340,000 compounds, 1.5% hits;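 active = melting point raised past a set limit in the mean and every replicate; inconclusive = no clear call; three in four hits are not shown here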
Target sequence (Q9HCT0 whole entry, looked up): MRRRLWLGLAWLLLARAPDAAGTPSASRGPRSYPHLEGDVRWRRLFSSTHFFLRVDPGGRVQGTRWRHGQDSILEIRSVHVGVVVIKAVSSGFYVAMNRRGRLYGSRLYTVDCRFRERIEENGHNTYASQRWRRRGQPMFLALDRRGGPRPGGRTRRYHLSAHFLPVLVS
Vif A3G = HIV-1 Vif–A3G interaction blockers – biochemical, TR-FRET, GST-Vif 1-94, biotin-A3G peptide, dose response retest, primary screen (AID 1117319); TR-FRET GST-Vif / biotin-A3G peptide binding; higher % means a stronger effect; test concentration not given here; strong numbers were not always called active; 260,000 compounds, 0.57% hits; one-dose inhibition, %; IC50 in µM for titrated hits;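 active = above the screen mean plus three standard deviations and confirmed in dose response; inconclusive = results disagree or hit not tested in dose response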;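 note: Vif residues 1-94 fused to GST binding biotinylated APOBEC3G peptide 110-148; 0% = full assay without inhibitor and 100% = GST in place of GST-Vif; retest series ran down from 100 µM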
ALR inh = human ALR oxidase inhibition via reduced H2O2 | inhibition, % (test concentration not listed) | purified ALR, DTT oxidation, H2O2 HRP-luminol luminescence | 290,000 compounds, 3.8% hits;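 active = mean and each replicate at 75% or more; inconclusive = only one of the two met; inactive = neither met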;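 note: stock transfer was 7.5 nL into about 7.5 µL; 0% = neutral wells and 100% = wells with inactivated enzyme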
Target sequence (P55789 whole entry, looked up): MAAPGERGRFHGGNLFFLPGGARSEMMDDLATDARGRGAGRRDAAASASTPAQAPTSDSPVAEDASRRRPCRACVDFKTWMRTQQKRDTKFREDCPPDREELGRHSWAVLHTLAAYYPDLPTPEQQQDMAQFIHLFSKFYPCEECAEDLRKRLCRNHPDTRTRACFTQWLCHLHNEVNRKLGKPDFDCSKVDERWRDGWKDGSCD
Ecoli rRNA inh = selective bacterial rRNA inhibition in E. coli. AID 720706. 350,000 compounds, 1.6% hits. GFP signal change (wild-type ribosome), % (concentration not given with the values). E. coli WT GFP vs humanized-ribosome RFP mutants, fluorescence, 24 h; hits give low values; DMSO median 0, no signal -100;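 active = significant combined selectivity score with lowered wild-type GFP, culture density cut under 30%, mutant RFP and density less affected; inactive = any of these conditions unmet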; note: one replicate is shown; some compounds called inactive have numbers as strong as hits
HNF4A DNA FP = change in binding of human HNF4 alpha to DNA | P41235 | HNF4a-FITC DNA binding, fluorescence polarization, 1 h | activity change, % at 10 µM | 360,000 compounds, 0.3% hits | AID 1224865; in the data active = activity change above about 30%, passing the limit was not always enough;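 note: controls were the assay level and a saturating level of protein; the project sought stronger binding though the title names inhibitors; some compounds called inactive have numbers as strong as hits; positive values seem to mean higher polarization but the record does not say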
Target sequence (P41235 whole entry, looked up): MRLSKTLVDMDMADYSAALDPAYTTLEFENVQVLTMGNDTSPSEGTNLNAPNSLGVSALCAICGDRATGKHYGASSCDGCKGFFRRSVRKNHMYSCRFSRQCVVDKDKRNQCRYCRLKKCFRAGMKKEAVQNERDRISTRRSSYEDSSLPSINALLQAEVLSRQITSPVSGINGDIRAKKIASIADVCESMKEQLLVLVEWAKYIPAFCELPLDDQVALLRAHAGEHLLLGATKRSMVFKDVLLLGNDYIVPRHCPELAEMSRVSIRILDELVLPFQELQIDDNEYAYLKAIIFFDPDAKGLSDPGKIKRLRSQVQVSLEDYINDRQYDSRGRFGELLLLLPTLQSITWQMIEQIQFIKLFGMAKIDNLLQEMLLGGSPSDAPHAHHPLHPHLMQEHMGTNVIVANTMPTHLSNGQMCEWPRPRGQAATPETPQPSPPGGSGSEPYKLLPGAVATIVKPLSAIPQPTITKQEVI
Ecoli rRNA inh OD600 = also measured in Ecoli rRNA inh; calls as there; OD600 change, %; measured here: OD600 growth;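 optical density of the mix in the first replicate; 0 = DMSO median and -100 = no signal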
Ecoli rRNA inh RFP = further read-out of Ecoli rRNA inh, marked with its call; RFP signal change, %; measured here: RFP humanized mutant strains;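 first replicate; 0 = DMSO median and -100 = no signal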
An asterisk follows results filed as active; i = inactive; u = inconclusive; x = no result given; & = joins results of further samples. An excerpt. The share of hits here may be higher or lower than overall.

SMILES	E coli growth	MLL AF4-AF9 inh	FGF22 binding	Vif A3G	ALR inh	Ecoli rRNA inh	Ecoli rRNA inh OD600	Ecoli rRNA inh RFP	HNF4A DNA FP
Nc1ccc(S(=O)(=O)Nc2ccc(S(N)(=O)=O)cc2)cc1	0.685	x	x	2.0%	-1.1	x	x	x	1.0
NC(=O)C1CCCN(C(=O)CN2C(=O)NC(c3ccccc3)(c3ccccc3)C2=O)C1 (stereo not drawn)	0.703	-2.0	i	1.0%	x	1.4	6.5	-1.7	5.5
C[C@@H]1CN([C@H](C)CO)C(=O)c2cccc(NC(=O)c3ccncc3)c2O[C@H]1CN(C)S(=O)(=O)c1ccc(Cl)cc1	x	-5.7	i	x	x	2.1	-1.5	-0.5	x
O=S(=O)(c1ccc(-c2nc3ccccc3s2)cc1)N1CCCC1	0.772	x	x	-7.0%	-1.2	x	x	x	-1.3
O=C(CSc1nnc(CNc2ccccc2)o1)N1CCc2ccccc21	0.77	x	x	2.3%	-5.2	x	x	x	3.8
COc1ccc(NC(=O)c2cccc(S(=O)(=O)N3CCOCC3)c2)cn1	0.672	x	x	-1.4%	-19.9	x	x	x	1.6
O=C(Nc1cccc(Cl)c1)Nc1nc(-c2ccccc2)cs1	x	-6.5	i	19.8%	-8.6	-34.0	-58.4	-5.5	1.8
CC1(c2nnnn2Cc2ccccc2)CCC(=O)N1CCc1ccccc1F (stereo not drawn)	x	-1.6	i	x	x	-1.0	-1.8	-5.7	-0.9
CSCC[C@H](NC(=O)C1CCN(S(=O)(=O)c2ccc(C)cc2)CC1)C(=O)NCC1CCCO1 (stereo partly drawn)	0.671	x	x	2.0%	-13.2	x	x	x	3.9
O=C(Nc1cccc2c1CCCC2)C1CCN(c2nnnn2-c2ccccc2)CC1	0.664	x	x	26.6%	-11.5	x	x	x	0.4
CCCc1ccc2oc(C(=O)N(Cc3nccn3C)C(C)C)c(C)c2c1	0.689	6.3	i	x	-3.3	-12.3	-52.3	-8.8	0.2
Cc1cccc(N(C(=O)Cn2nnc(-c3ccccc3F)n2)C(C(=O)NC(C)(C)C)c2ccncc2)c1 (stereo not drawn)	0.625	-0.3	i	-5.2%	-8.7	8.0	8.8	0.7	1.8
COc1cccc(-c2nnc(SCc3nc4ccccc4[nH]3)n2N)c1	0.668	x	x	0.6%	-5.7	x	x	x	3.0
C[C@@H]1C[C@H]2[C@@H]3CCC4=CC(=O)C=C[C@]4(C)[C@@]3(F)[C@@H](O)C[C@]2(C)[C@H]1C(=O)CO	x	3.0&-2.2	i	32.8%	-1.4	-5.7	-27.8	-0.7	3.3
Cc1noc(C)c1NC(=O)N(C)C[C@H]1OCCCC[C@H](C)Oc2ccc(NS(=O)(=O)c3c(C)noc3C)cc2C(=O)N([C@H](C)CO)C[C@@H]1C	x	0.2	i	x	x	5.7	6.7	0.6	x
CCCSc1nc2c(c(=O)n1-c1ccc(OCC)cc1)SCC2	0.741	x	x	-3.3%	-12.7	x	x	x	-1.0
O=C(NCc1ccccc1Cl)[C@@H]1CCCN1S(=O)(=O)c1ccc(Cl)cc1	0.646	-1.1	i	-4.9%	-4.0	-9.6	-15.5	-1.2	-1.4
COc1cc(CO)cc(-c2cc(CO)cc(OC)c2OC)c1OC	0.701	x	x	9.8%	-0.8	x	x	x	-1.3
Cc1cccc(NC2=CC(=O)CC(C)(C)C2)c1C	0.65	-0.3	i	2.5%	-16.7	-5.6	3.6	0.6	0.4
Cc1ccc(OCC(=O)N2CCCCC2C)c([N+](=O)[O-])n1 (stereo not drawn)	0.707	-0.9	i	x	x	12.7	-2.6	-1.7	-1.0
Cc1ccn(CC(=O)N2N=C(C(F)F)CC2(O)C(F)F)n1 (stereo not drawn)	0.675	-0.5	i	6.7%	-0.8	13.2	10.2	-7.7	-2.1
CS(=O)(=O)Nc1ccc2c(c1)[C@@H]1C[C@@H](CC(=O)NCc3ccccn3)O[C@@H](CO)[C@@H]1O2	x	-1.8	i	x	x	6.2	10.0	0.9	x
CC1(C)CC2(CCCN(CC(O)(c3ccccc3)c3ccccc3)C2)CCO1 (stereo not drawn)	0.643	-34.2	i	-2.4%	x	-18.5	-17.4	-10.2	-1.6
CC1(C)Cc2ccccc2-c2nc(-c3ccccc3)oc(=O)c21	0.744	15.4	x	2.9%	-11.8	x	x	x	0.9
Cc1cc(C(=O)OCC(=O)NCc2ccco2)c(C)o1	0.675	-3.6	i	u	x	11.1	2.6	0.1	-3.5
O=[N+]([O-])c1ccccc1N(S(=O)(=O)c1ccccc1)S(=O)(=O)c1ccccc1	0.69	-3.0	i	-9.6%	x	2.3	6.9	1.8	-7.0
Cc1c(C(=O)OCC(=O)N2CC(C)OC(C)C2)oc2ccc(Br)cc12 (stereo not drawn)	0.704	x	x	-0.6%	x	x	x	x	4.1
COc1ccccc1C(=O)Nc1ccc(S(=O)(=O)Nc2cnc3ccccc3n2)cc1	0.649	0.1	i	-1.6%	x	7.4	-9.7	5.6	0.3
CCc1cc(CNC(=O)C2CCC(=O)N(CCc3ccc(OC)cc3)C2)on1 (stereo not drawn)	0.624	-6.5	i	-1.2%	-2.5	17.6	13.1	2.8	39.4*
CNc1ncc(C(=O)c2ccc(F)cc2)s1	0.719	0.6	i	-1.8%	-4.1	5.2	-2.0	0.2	0.4
O=C(NCc1cccnc1)c1ccc(Cl)cc1[N+](=O)[O-]	0.716	x	x	u	-6.1	x	x	x	-4.6
CCOC(=O)c1c(OCC)[nH]c2c1cc(O)c1ccccc12	0.639	x	x	u	99.3*	x	x	x	2.7
COc1cc2c(cc1OC)C(c1ccccc1)N(C(=O)c1ccccc1F)CC2 (stereo not drawn)	0.639	-2.7	i	-9.8%	5.3	-21.8	-23.9	-6.4	-0.8
CC(C)n1ncc2c(C(=O)Nc3ccc(S(N)(=O)=O)cc3)cc(C3CC3)nc21	0.686	u	i	0.0%	0.5	-8.0	-8.6	-0.3	64.0
NNc1cc2c(nn1)CCN(C(=O)c1ccccc1)C2	x	5.5	i	9.0%	x	-3.8	2.3	-5.2	-0.8
C[C@@H]1CN([C@H](C)CO)S(=O)(=O)c2ccc(C#Cc3ccncc3)cc2O[C@@H]1CN(C)S(=O)(=O)c1ccc(F)cc1	x	-4.0	i	x	x	-3.9	-9.3	4.1	x
O=C(CCN1CCCCC1)N/N=C/c1ccc(Br)cc1	x	0.9	i	-3.0%	-0.1	21.4	7.9	4.4	-2.9
COC(=O)C1=NN(C(C)(C)CC(C)=O)C2C(=O)N(C3CCCCC3)C(=O)C12 (stereo not drawn)	0.645	0.0	i	9.8%	x	3.9	8.4	-0.2	2.8
Cc1ccsc1/C=N/NC(=O)Cc1cc(=O)[nH][nH]1	x	-8.4	i	-4.5%	26.0	11.2	1.0	1.2	-1.3
CC(C)(C)c1ccc(C(=O)N2CCC(C(=O)NCc3ccco3)CC2)cc1	0.68	x	x	10.6%	4.2	x	x	x	3.6
CO[C@H]1CN(C)C(=O)c2ccc(NC(=O)Nc3ccccc3)cc2OC[C@H](C)N(C(=O)CC2CC2)C[C@H]1C	x	2.2	i	x	x	-1.2	-8.6	-1.0	x
COc1ccc(NC(=O)C2CCC2)cc1S(=O)(=O)Nc1cc(C)ccc1Br	0.719	-1.8	i	-3.9%	-1.0	-7.9	-17.8	7.4	-3.2
COCC(C)n1c(C)cc(C(=O)CSc2ccc(NC(C)=O)cc2)c1C (stereo not drawn)	0.786	x	x	5.8%	98.5*	x	x	x	0.2
COc1ccc(NC(=O)COc2coc(CN3CCc4ccccc43)cc2=O)cc1	0.669	7.7	i	-2.8%	-3.7	2.3	5.2	-0.5	-4.8
O=C([C@@H]1[C@@H](CO)[C@@H]2Cn3c(ccc(-c4ccc(F)cc4)c3=O)[C@@H]2N1Cc1cocn1)N1CCCCC1	x	1.8	i	x	x	-1.5	-2.3	0.1	x
COc1cc(OC)cc(C(=O)N[C@H](C(=O)OCC(=O)Nc2ccc(F)c(F)c2F)C(C)C)c1	0.704	3.9	i	-9.9%	-1.0	-19.6*	-11.2*	0.5*	0.6
COc1cc(=O)[nH]c(=O)n1C(=O)Cc1ccccc1	0.751	x	x	-5.1%	-4.8	x	x	x	2.2
CC1(C)C/C(=N\O)c2cc3c(nc2C1)CCCC3	x	x	x	16.9%	-1.5	26.2	12.9	5.9	1.9
COc1ccc(/C=C/CN2CCCC(C(=O)c3ccc(OC)c(F)c3)C2)cc1 (stereo not drawn)	0.687	6.5	x	15.1%	-2.3	-28.2	-25.9	0.9	-0.7
COc1ccc(C2C(C#N)=C(N)Oc3c2oc(CO)cc3=O)c(OC)c1OC (stereo not drawn)	0.692	x	x	12.2%	30.6	x	x	x	-4.3
c1cnc(N2CC[N+]3(CCCC3)CC2)nc1	0.66	x	x	-10.4%	-1.9	x	x	x	-3.5
CO[C@H]1CN(C)C(=O)c2cc(NC(C)=O)ccc2OC[C@H](C)N(Cc2ccccc2C(=O)O)C[C@@H]1C	x	-3.5	i	x	x	-0.1	-7.3	-4.2	x
CCOC(=O)c1c(NC(=O)c2cccnc2)sc(C(C)=O)c1C	0.704	1.6	i	x	x	10.4	5.3	-0.1	2.8
COc1cc(/C=C/C(=O)OCC(=O)NCc2ccco2)ccc1OC(F)F	0.74	-7.5	x	x	-1.2	6.8	-0.3	-0.2	2.1
CNC[C@@H]1Oc2c(NC(=O)Nc3ccc(OC)cc3)cccc2C(=O)N([C@H](C)CO)C[C@@H]1C	x	1.5	i	x	x	1.6	3.3	-1.3	x
CC(C)NC(=O)N(C)C[C@H]1Oc2c(NS(C)(=O)=O)cccc2C(=O)N([C@H](C)CO)C[C@@H]1C	x	-2.1&2.0	i	x	x	2.7	2.5	-0.8	x
O=C(CSc1nnnn1-c1cccnc1)Nc1ccc(F)cc1F	0.664	-6.4	i	x	-1.9	8.3	8.3	-1.6	2.8
CC(=O)c1cccc(OCC(O)CN2CCN(S(=O)(=O)c3c(F)cccc3F)CC2)c1 (stereo not drawn)	0.665	2.2	i	-10.6%	-10.7	-12.5	-7.7	-0.2	-3.3
O=C(NN1C(=O)C2C3CCC(O3)C2C1=O)c1ccc(Cl)cc1 (stereo not drawn)	0.609	2.9	i	-5.9%	-3.8	7.5	8.6	1.2	-3.2
COc1ccc2c3c(n(C)c2c1)[C@H](CO)N(C(=O)C1CCC1)CC31CCN(C)CC1	x	-1.7	i	x	x	3.5	5.4	0.3	x
C[C@@H]1CN([C@@H](C)CO)C(=O)c2c(c3ccccc3n2C)-c2ccccc2CO[C@H]1CN(C)C(=O)Nc1ccc(F)cc1	x	4.3	i	x	x	-4.9	-8.7	6.0	x
NC(=O)c1c(N)[nH]c(C(=O)c2ccccc2)c1-c1ccc(Cl)cc1Cl	x	1.9	x	x	x	-16.4	-29.5	15.2	x
Cc1ccccc1N=C1SCC(=O)N1Cc1ccccc1	0.713	x	x	5.0%	-14.0	x	x	x	-1.2

Screens from PubChem.
